Compound activity deposited in PubChem BioAssay by several laboratories.
BJeLR viability: BJeLR cell viability loss. BJeLR (HRASV12) viability, CellTiter-Glo ATP luminescence, 48 h; reference of the scale not given here. inhibition, % (test concentration not listed). 300,000 compounds, 0.17% hits. AID 1554;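 active = replicate mean above 50%; inconclusive = above 50% but judged a plate artefact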;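 also: 50 nL library stock added to about 25 µL; numbers are from one replicate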
Mtb hypoxia inh: Mtb hypoxia fluorescent reporter inhibition; M. tuberculosis hypoxia-regulated fluorescent reporter, fluorescence; fluorescence inhibition, % (concentration not given with the values); 300,000 compounds, 0.1% hits; AID 1159583;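 active = 35 to 45% if threefold the growth effect, above 45% if 1.5-fold the growth effect; inactive = the rest, general growth blockers included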;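 also: wells of about 50 µL received 100 nL stock; 0% = vehicle wells and 100% = reference inhibitor wells; whole bacteria with a GFP reporter of the hypoxia response; strong numbers were not always called active; many hits fall short of the cut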
PrP 5UTR inh: suppresses PrP 5' UTR mRNA reporter expression. cell-based PrP 5' UTR mRNA reporter, plate reader. inhibition, % (concentration not given with the values). AID 488862. 340,000 compounds, 0.35% hits;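 active = every replicate at 50% or more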;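 also: 0 = median of the neutral control wells; tested in H4 reporter cells; numbers are from one replicate; inactives centre near -14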
ugtP null kill: compounds lethal to S. aureus RN4220 ugtP deletion mutant. OD600 growth, 16 h; some inactives read as strong as hits. growth inhibition, % (test concentration not listed). 330,000 compounds, 0.54% hits;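 active = z-score under -3 and OD600 up to 0.15 on both plates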;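 also: plate controls were untreated wells for no effect and antibiotic for full effect; wells of about 80 µL received 100 nL stock; the first replicate is given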
RN4220 kill: S. aureus RN4220 growth inhibition. OD600, 16 h. inhibition, % (test concentration not listed). 330,000 compounds, 0.33% hits;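 active = z-score of -3 or lower and OD600 up to 0.18 on both plates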;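 also: plate controls were untreated cells for no effect and reference antibiotic for full effect; stock transfer was 100 nL into about 80 µL; one replicate is shown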
Autofluor counter: flagged as autofluorescent in microsphere protease counterscreen; compound autofluorescence counterscreen, microsphere flow cytometry; hits give high values; fluorescence intensity (no concentration beside the values); 360,000 compounds, 3.1% hits;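 active = at least 3 SD above the mean of all compounds, about 16000 in these data; inconclusive = too few beads counted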;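 also: 100 nL of 1 mM stock went into each well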
Mtb hypoxia inh growth: recorded beside Mtb hypoxia inh, whose call it bears; growth inhibition, %; measured here: M. tuberculosis growth (absorbance);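 0% = vehicle and 100% = reference antibiotic; read after six days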
* = called active by the depositor; u = inconclusive; x = no result given; & = joins results of further samples.

Compound	BJeLR viability	Mtb hypoxia inh growth	Mtb hypoxia inh	PrP 5UTR inh	Autofluor counter	ugtP null kill	RN4220 kill
CCC(C(=O)NCCc1ccccc1OC)n1nc(C)c2c(C)n(-c3ccccc3)nc2c1=O (stereo unspecified)	-16	8	2	-37	5908	2	-2.0
Cc1nn(-c2ccccc2)cc1C(c1c(N)[nH]c(=S)[nH]c1=O)c1c(N)[nH]c(=S)[nH]c1=O	9	x	x	-16	4146	x	x
Nc1cc2c(cc1[N+](=O)[O-])OCO2	-6	-2	1	-14	2071	3	7.7
Cc1cc(OCC(=O)Nc2cc(-c3nn4c(C)nnc4s3)ccc2C)ccc1Cl	x	x	x	-23	6105	7	1.0
O=C(Cc1cccs1)N1CCN=C1SCc1ccc(Br)cc1	1	8	12	-10	3879	13	0.0
CN(C(=O)COC(=O)c1cnc(Cl)c(Cl)c1)C1CCCCC1	x	13	19	-10	3828	6	4.5
CCOc1ccc(NC2=NCC(=O)N2CCc2ccccc2)cc1	0	x	x	0	3267	8	4.2
CCCC(c1nnnn1Cc1ccco1)N1CCN(c2ccccc2)CC1 (stereo unspecified)	-1	-2	2	-23	3685	3	4.2
COc1ccc(NC(=O)CCC2CCCCC2)cc1S(=O)(=O)N1CCCCC1	-3	3	4	1	2531	-6	-4.1
CCCCn1c(-c2ccncc2)nc2c1c(=O)[nH]c(=O)n2CC(C)C	-2	9	7	-10	3115	5	6.4
Cc1c(CCC(=O)N[C@@H](C)C(=O)O)c(=O)oc2cc3oc4c(c3cc12)CCCC4	6	-4	9	19	2970	1	3.2
COc1ccccc1CNC(=O)c1ccc(N2CCOCC2)c([N+](=O)[O-])c1	-7	2	10	-30	4995	8	-5.8
CCN(CC)c1ccc(/C=N/N=C(c2ccccc2)c2ccccc2)c(O)c1	-1	x	x	-10	2031	x	x
O=C(Nc1nnc(CCN2CCCCC2)s1)c1cccc(Cl)c1	5	4	12	-26	3589	10	1.6
COc1ccc(N(CC(=O)Nc2c(C)n(C)n(-c3ccccc3)c2=O)S(=O)(=O)c2ccc(C)cc2)cc1OC	-3	-2	2	-17	3137	9	2.5
Cc1ccc(S(=O)(=O)N2CCCCC2)cc1NS(=O)(=O)c1cccc(C(=O)O)c1	17	0	3	-11	1931	2	1.4
COc1ccc(C2=NO[C@@H]3[C@@H]4C[C@@H]([C@H]5C(=O)N(C)C(=O)[C@@H]45)[C@H]23)cc1	6	2	16	-36	2158	1	0.6
Cc1ccc(S(=O)(=O)c2c(N)n(NC(=O)C3CC3)c3nc4ccccc4nc23)cc1	11	7	5	-1	16643*	6	4.5
Cc1ccc(CNC(=O)C(C)OC(=O)c2ccco2)cc1 (stereo unspecified)	-2	4	3	-21	22466*	7	5.2
CN1CCN(C(=O)C2=CC(C(C)(C)C)CC(OCc3ccc(CO)cc3)O2)CC1 (stereo unspecified)	x	9	11	x	x	-7	5.4
CCOc1ccc(C2c3[nH]c4ccccc4c3C[C@H]3C(=O)N(C4CC4)CC(=O)N23)cc1OC (stereo partly specified)	0	-1	-3	-26	3864	3	3.6
Cc1sc(NN=Cc2cccs2)nc1-c1ccccc1	x	11	10	x	x	15	-2.4
O=C(OCC(=O)c1ccc(Cl)cc1Cl)c1ccccn1	x	63*	30*	-21	3918	10	8.0
O=C(CCN1C(=O)c2ccccc2S1(=O)=O)N1CCN(c2ccc(F)cc2)CC1	1	6	5	-18	4362	8	4.2
CCN(C(=O)COC(=O)c1ccccc1NCCO)C1CCS(=O)(=O)C1 (stereo unspecified)	-11	-1	9	-33	5561	6	2.0
COc1ccc(C(=O)OCc2cc(=O)n3c(C)csc3n2)cc1F	x	0	-6	-54	3364	2	2.9
C=C(C)CNC(=S)N/N=C\c1ccc2c(c1)OCO2	-15	x	x	-17	3261	x	x
O=C(C1CCN(S(=O)(=O)c2ccc(Cl)cc2)CC1)N1CCC1	-4	4	2	-9	7462	3	1.4
COC(=O)C(CCSC)NC(=O)c1cn(-c2ccc(OC)cc2)c(=O)c2ccccc12 (stereo unspecified)	-5	5	5	x	4029	3	6.4
O=C(NN(C(=O)c1ccccc1)c1cccs1)c1ccccc1	x	2	6	-21	3213	2	2.9
COc1ccc(-c2noc(CCCC(=O)NCc3ccco3)n2)cc1OC	-5	-3	8	-13	8098	9	4.1
Oc1c(/C=N/c2ccccn2)sc2ccccc12	12	x	x	-38	4535	x	x
CCOc1ccc(C(=O)NCC(=O)NNC(=O)C2COc3ccccc3O2)cc1OCC (stereo unspecified)	0	1	1	0	4582	3	0.3
COc1ccc2oc(C(=O)OC(C)C(=O)N(C)c3ccccc3)c(C)c2c1 (stereo unspecified)	2	-3	9	-3	5191	-7	2.2
CCOC(=O)N1CCC(NC(=O)CSCc2nc(-c3ccccc3Cl)oc2C)CC1	4	5	9	-7	5915	2	1.1
O=C(Nc1ccc(N2CCOCC2)cc1N1CCOCC1)c1ccc([N+](=O)[O-])cc1	3	7	3	-24	3240	-2	-20
COc1ccccc1OC(C)C(=O)Nc1ccc2c(c1)n(C)c(=O)n2C (stereo unspecified)	-11	2	-1	-16	3785	2	3.1
O=C1CCCN1CCCNc1ncnc2c1cnn2-c1ccc(Cl)cc1	10	15	17	-62	5063	12	3.1
CN1C2CCC1C(C(=O)O)C(OC(=O)c1ccccc1)C2 (stereo unspecified)	x	x	x	1	5857	-5	0.9
COc1ccc(OC)c(NC(=O)NC2CCCCCCC2)c1	x	15	8	-11	u	3	1.4
COc1ccc(C(=O)c2ccc(N3CCOCC3)c([N+](=O)[O-])c2)cc1	3	13	8	-35	4446	3	6.1
Cc1cc(NC(=O)COc2coc(CN3CCN(c4ccccc4)CC3)cc2=O)no1	-5	1	3	-24	5386	5	4.1
Cc1nc(Cc2nnc(SCC(=O)N3CCN(c4ccc(O)cc4)CC3)o2)cs1	x	11	-1	-20	8829	-1	1.4
Cc1noc(C)c1NC(=O)Nc1cccc2c1O[C@H](CN(C)S(=O)(=O)c1cccs1)[C@@H](C)CN([C@H](C)CO)C2=O	x	-3	-1	-13	3858	-3	1.2
CCOC(=O)Cn1c(=N)n(Cc2ccccc2)c2ccccc21	1	x	x	-6	3574	6	2.3
O=C(CN1CCCC1)Nc1ccccc1Sc1ccccc1	1	10	9	-12	4664	0	5.2
COc1ccc(-c2ccccc2)cc1NC(=O)c1ccncc1	-2	8	1	-29	5198	-1	-2.0
COc1ccccc1OCCCCN1CCC(C)CC1	1	-1	8	-33	2869	5	2.2

As entered above.
Mtb hypoxia inh result of Cc1nc(Cc2nnc(SCC(=O)N3CCN(c4ccc(O)cc4)CC3)o2)cs1 → -1
Mtb hypoxia inh growth result of COc1ccc(OC)c(NC(=O)NC2CCCCCCC2)c1 → 15

(list continues)
Compound	BJeLR viability	Mtb hypoxia inh growth	Mtb hypoxia inh	PrP 5UTR inh	Autofluor counter	ugtP null kill	RN4220 kill
O=[N+]([O-])c1cccc(-c2ccc(C=NNC(=S)Nc3cccc(F)c3)o2)c1	x	7	16	x	x	-3	-3.2
COC(=O)c1ccc(C2/C(=C(\O)c3cccc(OC)c3)C(=O)C(=O)N2CCCN2CCOCC2)cc1 (stereo unspecified)	-5	13	3	4	2033	-2	-2.0
CCn1nc(C(=O)OCC(=O)NCCN2C(=O)CSC2=O)c2ccccc2c1=O	6	x	x	-8	3683	8	11
CC1=C(C(=O)N2CCOCC2)C(c2cccc(C)c2)NC(=S)N1 (stereo unspecified)	6	5	7	-13	10764	9	3.0
CCSc1nnc2c(n1)[nH]c1c(C)cccc12	3	3	-4	-86	12643	0	5.7
COc1ccccc1NC(=O)CN1CCN(c2ccccc2OC)CC1	-2	12	2	0	2436	-12	-5.0
CC(=O)C1=C(C)NC(=O)NC1c1cccs1 (stereo unspecified)	-24	0	9	-12	5875	12	2.0
CC1(C)NC(=O)N(CC(=O)OCC(=O)c2ccc(Br)s2)C1=O	x	3	16	-9	4127	-2	4.7
Cc1ccc(NC(=O)COC(=O)c2cccc(OC(F)F)c2)cc1S(=O)(=O)N1CCCCC1	x	2	5	-55	3042	4	3.4
NCCCCC1CN=C(N)N1CCCCC1CCCCC1 (stereo unspecified)	x	14	11	x	x	-3	0.6
COc1ccc2nc(NC(=O)CCNS(=O)(=O)c3ccc4c(c3)oc(=O)n4C)sc2c1	5	2	-4	-4	8528	2	1.3
NCC(c1ccccc1Cl)c1c[nH]c2ccccc12 (stereo unspecified)	0	12	-1	-45	3224	-12	0.7
N#Cc1cccc(NC(=O)c2ccccc2C(=O)O)c1	8	4	9	-20	9446	5	1.9
COc1cccc(-c2cn3nc4c(nc3n2)CCCC4)c1	43	x	x	35	3756	x	x
Fc1ccc(-c2nc3ccccc3[nH]2)cc1	3	8	4	-75	2055	9	6.8
Cc1ccc(C(=O)Nc2cccc(C(F)(F)F)c2)cc1NC(=O)c1cnnc2ccccc12	-8	4	5	0	2995&3541	-15	0.7
COc1ccc(Cn2c(C3CC3)nc3ccc(NC(=O)c4ccco4)cc3c2=O)cc1	3	-2	-3	-58	4846	9	-4.9
O=C(Oc1ccc2ccccc2c1Cl)N1CCCC1	9	x	x	-80	3520	14	4.1
O=C(COc1cccc(Cl)c1)Nc1nc(-c2ccc(S(=O)(=O)N3CCOCC3)cc2)cs1	8	x	x	-15	4360	-13	-5.2
CCCCn1c(-c2cccc(C)c2)nc2cc3[nH]c(=O)c(C(C)C)nc3cc21	3	17	12	2	3566	-25	5.6
O=C(NC(=O)N1CCN(c2ccc([N+](=O)[O-])cn2)CC1)c1c(Cl)cccc1Cl	5	10	4	x	x	1	4.0
COc1ccc(OCCCC(=O)OCC(=O)Nc2ncc(Cl)cc2Cl)cc1	x	0	0	0	5150	1	1.0
COc1ccc(NC(=O)CSc2nnc(NC(=O)c3ccccc3C(=O)O)s2)cc1	6	-9	-9	-3	4630	-3	-2.4
COC(=O)c1cc(OCC(=O)NC2CCCc3ccccc32)cc(C(=O)OC)c1 (stereo unspecified)	-3	-4	14	-26	3431	-4	-0.5

Two entries from above, as labelled records:
mol: COc1ccc(Cn2c(C3CC3)nc3ccc(NC(=O)c4ccco4)cc3c2=O)cc1
  BJeLR viability: 3 | Mtb hypoxia inh growth: -2 | Mtb hypoxia inh: -3 | PrP 5UTR inh: -58 | Autofluor counter: 4846 | ugtP null kill: 9 | RN4220 kill: -4.9

mol: O=C(NC(=O)N1CCN(c2ccc([N+](=O)[O-])cn2)CC1)c1c(Cl)cccc1Cl
  BJeLR viability: 5 | Mtb hypoxia inh growth: 10 | Mtb hypoxia inh: 4 | PrP 5UTR inh: x | Autofluor counter: x | ugtP null kill: 1 | RN4220 kill: 4.0

The list continues.
Compound	BJeLR viability	Mtb hypoxia inh growth	Mtb hypoxia inh	PrP 5UTR inh	Autofluor counter	ugtP null kill	RN4220 kill
COc1cccc(C2C(C(=O)c3sc(C)nc3C)=C(O)C(=O)N2CCN2CCOCC2)c1OC (stereo unspecified)	2	x	x	-17	3684	-5	4.6
NC(N)=NC1=NC(=O)C(Cc2ccccc2Cl)S1 (stereo unspecified)	10	5	0	-12	5928	8	4.4
O=C1/C(=C/c2cccc([N+](=O)[O-])c2)N2CCC1CC2	-12	3	14	-23	2260	3	7.4
CC(=O)NCCC(=O)Nc1nc(-c2ccc3c(c2)OCCO3)cs1	8	7	0	-16	5104	-6	2.4
O=C(OCc1ccccc1)c1ccc(Br)o1	-1	x	x	-7	2369	7	8.6
O=C(CN1C(=O)c2cccnc2Oc2ccc(Cl)cc21)N1CCOCC1	-7	2	1	-15	4912	3	1.1
O=c1oc2ccccc2c(O)c1C=NCc1ccccn1	-2	7	-1	3	3417	-4	-12
O=C(Oc1ccccc1/C=C\C(=O)c1cc2ccccc2o1)c1ccccc1	5	13	12	-100	2091	25	45
CCN(CC)CCCNC(=O)c1nn2c(C(F)(F)F)cc(-c3ccccc3)nc2c1Cl	8	4	-5	-14	3856	21	-1.4
COc1ccc(CCNC(=O)COC(=O)Cc2cc(OC)c(OC)c(OC)c2)cc1	1	-2	-12	-28	3411	-4	1.5
CCOc1ccc(NC(=O)COC(=O)Cc2ccc(S(=O)(=O)N3CCOCC3)s2)cc1	-4	-5	1	-7	12572	-3	-3.0
CCC(=O)/C=C1/Sc2ccc(OC)cc2N1CC	-8	6	11	-27	7869	11	7.4
